Sa growth inh: S. aureus growth inhibition at 42 and 30 °C, primary screen, LtaS inhibitor project, RN4220, two temperatures | OD600, 20 h, 42 °C; stronger effect = lower value | relative growth, % (no concentration beside the values) | hit rate 0.53% among 170,000;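 active = growth at 42 °C up to 50% and 20 or more points under that at 30 °C, or under 10% at both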;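 also: 300 nL library stock went into each well; scaled to the means of positive and negative controls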
HCMV UL50-53 inh: inhibitors of HCMV UL50-UL53 interaction, biochemical, HTRF; normalized percent inhibition; inhibition, % (no concentration beside the values); hit rate 0.15% among 190,000; AID 1918969, 2023;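 active = both replicates at 50% or more, plus weaker picks with an unusually low signal ratio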;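 also: stock transfer was 100 nL into about 20 µL; 0% = negative control wells and 100% = wells with untagged competitor protein; inactives centre near -12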
GIV Gai3 FP: inhibitors of GIV peptide binding to Galpha-i3, primary screen, biochemical, fluorescence polarization, FITC-GIV GBA peptide, rat Galphai3. 90 min; stronger effect = lower value; scaled: aluminum fluoride 0%, vehicle 100%. percent of control (FP), % (no concentration beside the values). hit rate 0.42% among 210,000. AID 1224905, 2016. Guanine nucleotide-binding protein G(i) subunit alpha-3 (Rattus norvegicus), P08753;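 active = replicate mean at 85% of control or lower, very high polarization wells dropped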;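 also: wells of about 15 µL received 100 nL stock; the first replicate is given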
Target sequence (P08753 whole entry, looked up): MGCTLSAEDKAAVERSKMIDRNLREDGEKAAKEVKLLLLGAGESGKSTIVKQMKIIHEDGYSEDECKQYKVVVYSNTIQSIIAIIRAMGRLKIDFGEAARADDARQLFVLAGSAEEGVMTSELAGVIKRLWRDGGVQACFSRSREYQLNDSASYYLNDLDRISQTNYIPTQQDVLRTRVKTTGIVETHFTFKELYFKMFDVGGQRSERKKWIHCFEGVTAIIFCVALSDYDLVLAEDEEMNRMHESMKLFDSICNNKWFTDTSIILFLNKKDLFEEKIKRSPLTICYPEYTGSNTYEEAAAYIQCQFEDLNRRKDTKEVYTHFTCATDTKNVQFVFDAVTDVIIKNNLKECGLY
Sa growth inh second temp: second read-out of Sa growth inh, no call of its own (marks repeat the call); relative growth, %; measured here: growth at 30 °C;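 optical density after 20 h as mean of two plates; 100% = untreated growth and lower means inhibition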
The depositor's hits bear a star; . = no result given; & = joins results of further samples.

Screens by letter: A = Sa growth inh; B = Sa growth inh second temp; C = HCMV UL50-53 inh; D = GIV Gai3 FP
O=C(NCC1CCCO1)c1ccc(NC(=O)N2CCCCc3ccccc32)cc1 (configuration not stated)
  A: .	B: .	C: -18	D: 99

CCOC(=O)c1cc(S(=O)(=O)Nc2ccc(OC)c(Cl)c2)[nH]n1
  A: 80	B: 81	C: .	D: 105

CC(C)Oc1ccc(Cl)nn1
  A: 90	B: 84	C: -20	D: 102

O=C(CCSc1ccccc1)NCc1cccnc1
  A: 79	B: 84	C: -4	D: 108

COc1ccc(-c2cc(OC(=O)c3ccc(C(C)(C)C)cc3)c3c(C)oc(C)c3c(=O)c2)cc1OC
  A: .	B: .	C: -36	D: 116

Cc1ccc(Cn2c(C)c3cnn(CC(=O)NC(C)c4ccc5c(c4)OCCO5)c(=O)c3c2C)cc1 (configuration not stated)
  A: 111	B: 86	C: 3	D: 104

CCc1c(C(=O)OC)c2cc(NS(C)(=O)=O)ccc2n1S(C)(=O)=O
  A: 94	B: 92	C: -14	D: 101

C#C[C@]1(O)CCC2C3CCC4=CC(=O)CC[C@@H]4C3CC[C@@]21C (some centres not stated)
  A: 83	B: 83	C: -12	D: .

Cc1ccc(S(=O)(=O)NCCn2c(-c3ccccc3)nc3cccnc32)cc1C
  A: .	B: .	C: -20	D: 110

Cc1cc2c(cc1S(=O)(=O)N1CCCC(C(=O)N3CCN(C4CCCCC4)CC3)C1)OCC(=O)N2 (configuration not stated)
  A: .	B: .	C: -24	D: 100

O=c1c2sc3ccccc3c2n(Cc2ccc(Cl)cc2)c(=O)n1Cc1ccco1
  A: 110	B: 83	C: -15	D: 103

CN1CCN(CCCNC(=O)CN2C(=O)CCCc3ccccc32)CC1
  A: .	B: .	C: -8	D: 108

COc1ccc(Cl)cc1N(CC(=O)N1CCC(C)CC1)S(=O)(=O)c1ccc(C)c([N+](=O)[O-])c1
  A: .	B: .	C: 9	D: 104

COc1cccc(CNC(=O)C2CCCN2S(=O)(=O)c2cc3c(cc2C)NC(=O)C(C)O3)c1 (configuration not stated)
  A: .	B: .	C: 20	D: 104

COc1ccccc1-n1c(C)nc(=O)c(-c2ccccc2)c1C
  A: 102	B: 78	C: .	D: 94

COc1ccc(C(Nc2ccccn2)c2cc(C)sc2NC(=O)c2ccccc2)cc1 (configuration not stated)
  A: .	B: .	C: -30	D: 107

Cc1c(-c2ccnn2C(=O)c2cccs2)cnn1-c1ccccc1
  A: 110	B: 79	C: -2	D: 101

Cn1c2c(c3ccccc31)C(C)(C)Cc1c-2cnn1-c1ccccc1
  A: 122	B: 86	C: .	D: 100

O=C1C=CC(=O)N1c1ccccc1Sc1ccccc1
  A: 62	B: 66	C: -4	D: .

COc1ccc(CNC(=O)c2cc3c(=O)n(Cc4cccnc4)ccc3nc2C)cc1
  A: 91	B: 88	C: .	D: 97

Cn1cc(-c2nc(-c3ccc(Cl)cc3)no2)c(=O)c2cc(F)c(N3CCOCC3)cc21
  A: .	B: .	C: -40	D: 104

CCC(=O)N(c1nnc(SC(C)C(=O)c2ccc(NS(C)(=O)=O)cc2)s1)C1CC1 (configuration not stated)
  A: 89	B: 85	C: -8	D: .

COC(=O)C1CCC(C(=O)O)C1(C)C (configuration not stated)
  A: 96	B: 80	C: -27	D: .

COc1cccc(C(=O)NCCc2csc(-c3cccc(F)c3)n2)c1OC
  A: 69	B: 64	C: .	D: 104

COc1cc(=O)[nH]c(SCC(=O)Nc2ccc(Br)cn2)n1
  A: 110	B: 92	C: -7	D: 97

Next results
Screens by letter: A = Sa growth inh; B = Sa growth inh second temp; C = HCMV UL50-53 inh; D = GIV Gai3 FP
CC(=O)Nc1ccc(S(=O)(=O)NC(c2ccc(Cl)cc2)c2nnc(-c3ccccc3)o2)cc1 (configuration not stated)
  A: .	B: .	C: -20	D: 97

COc1ccc(C(=O)Nc2cc(C(C)C)c(O)c(S(=O)(=O)c3ccc(Cl)cc3)c2C)cc1
  A: 95	B: 86	C: -22	D: 105

Cc1ccc(NC(=O)NCC2CN(CC(C)C)CCO2)cc1 (configuration not stated)
  A: 97	B: 87	C: -11	D: .

O=C(ON1C(=O)c2cccc3cccc(c23)C1=O)c1ccncc1
  A: 90	B: 80	C: .	D: 102

CCC(C)NC(=O)Cc1ccc(OC)cc1 (configuration not stated)
  A: 91	B: 91	C: -1	D: .

Cc1cc(C)c2cc(C(=O)N3CCC(N4CCCCC4)CC3)[nH]c2c1
  A: 105	B: 97	C: 3	D: 108

CCCSc1ncccc1C(=O)Nc1cccc2nonc12
  A: 107	B: 91	C: -99	D: 102

CCCn1cc(S(=O)(=O)c2ccc(C)c(C)c2)c(=O)c2cc(F)c(N3CCCCC3)cc21
  A: 88	B: 76	C: .	D: 112

COc1ccc(C(=O)N2CCC(c3ccncc3)CC2)cc1OC
  A: 104	B: 82	C: .	D: 98

COc1ccc(CCNC(=O)c2cc3c(-c4ccccc4F)nn(C)c3s2)c(OC)c1
  A: 106	B: 89	C: -30	D: 102

Cc1ccccc1/C=C1\Cc2ccccc2C1=O
  A: 109	B: 75	C: .	D: 106

Cc1nn(Cc2noc(C(=O)NC(C)c3ccccc3)n2)c(C)c1Br (configuration not stated)
  A: 88	B: 81	C: -17	D: 107

CCN(c1ccccc1)c1ncnc2c1cnn2-c1ccc(OC)cc1
  A: 78	B: 83	C: .	D: 102

Cn1cc(S(=O)(=O)N2CCCC2)cc1C(=O)N1CCc2ccccc2C1
  A: 95	B: 74	C: .	D: 103

O=C1CCCCC1Sc1nnc(C2CC2)n1Cc1ccccc1 (configuration not stated)
  A: 112	B: 100	C: 8	D: .

COc1ccc(CNC(=O)c2n[nH]c(=O)c3ccccc23)cc1OC
  A: 111	B: 95	C: 4	D: 103

Cc1cc(C)n(CC(=O)NC23CC4CC(CC(C4)C2)C3)c(=O)c1C#N
  A: 97	B: 86	C: .	D: 107

O=C(O)COCC(=O)Nc1cnccn1
  A: 100	B: 98	C: 18	D: 100

CCCCOc1ccc(C(=O)N(Cc2nc(-c3ccc(Cl)cc3)no2)C(C)C)cc1
  A: 99	B: 87	C: -27	D: 101

Cc1ccc(S(=O)(=O)N2CCCC2)c(C)c1
  A: 87	B: 96	C: -7	D: 104

CCCn1c(=O)c(/C(N)=N/O)nn(-c2ccccc2)c1=O
  A: 96	B: 86	C: -88	D: 107

O=C(CCc1nnc2ccc(NCc3ccccc3)nn12)NCc1cccnc1
  A: 91	B: 84	C: -13	D: 101

COc1cc2c(cc1NC(=O)COc1ccc(Br)cc1)oc1ccccc12
  A: 119	B: 86	C: -21	D: 110

CC1CCc2c(sc3ncnc(NCCOCCO)c23)C1 (configuration not stated)
  A: 101	B: 93	C: 5	D: 108

CCCOc1ccc(CNC(=O)c2cc3oc4ccccc4c3n2C)cc1
  A: 103	B: 100	C: 4	D: 104

5 entries already listed, arranged by the number in Sa growth inh second temp, highest first:
Molecule	Sa growth inh second temp
CCC(C)NC(=O)Cc1ccc(OC)cc1 (configuration not stated)	91
CCCn1c(=O)c(/C(N)=N/O)nn(-c2ccccc2)c1=O	86
O=c1c2sc3ccccc3c2n(Cc2ccc(Cl)cc2)c(=O)n1Cc1ccco1	83
COc1ccc(C(=O)N2CCC(c3ccncc3)CC2)cc1OC	82
Cn1cc(S(=O)(=O)N2CCCC2)cc1C(=O)N1CCc2ccccc2C1	74

Continued:
Screens by letter: A = Sa growth inh; B = Sa growth inh second temp; C = HCMV UL50-53 inh; D = GIV Gai3 FP
CCOc1ccc(NC(=O)Cn2cnc3sc(C)c(S(=O)(=O)N4CCN(c5ccccc5OC)CC4)c3c2=O)cc1
  A: 100	B: 88	C: -29	D: 102

CCNc1ccc(S(=O)(=O)C(F)(F)F)cc1N
  A: 88	B: 92	C: -13	D: .

Cc1nc2nc(SCC(=O)NCCc3ccccc3)nn2c(C)c1Cc1c(F)cccc1Cl
  A: 97	B: 58	C: -15	D: 99

Cc1ccc(/C=C2\CCC/C(=C\c3ccc(C)s3)C2=O)s1
  A: 101	B: 87	C: -32	D: .

COc1ccc(CCNC(=O)c2nn(-c3ccc(C)cc3)c(=O)c3c2c2ccccc2n3C)cc1OC
  A: 102	B: 87	C: -23	D: 101

Cc1cc(C)cc(S(=O)(=O)Nc2cc(C(=O)O)cnc2N(C)CCCc2c(C)nn(C)c2C)c1
  A: .	B: .	C: -16	D: 102

CCOc1ccc(CNC(=O)CN2C(=O)c3c(c4ccccc4n3C)C2c2ccc(OC)cc2)cc1 (configuration not stated)
  A: .	B: .	C: -27	D: 102

Nc1c(-c2ccccc2)c(-c2ccccc2)nn1Cc1ccccc1
  A: 90	B: 86	C: -29	D: 108

COc1ccc(Cc2nn3c(-c4ccc5ccccc5n4)nnc3s2)cc1OC
  A: .	B: .	C: -61	D: 111

O=c1n(CC(O)CN2CCCCC2)c(=O)n(CC(O)CN2CCCCC2)c(=O)n1CC(O)CN1CCCCC1 (configuration not stated)
  A: 92	B: 87	C: -4	D: 103

COc1ccccc1N1CCN(c2ccc(=O)n(CC(=O)Nc3ccc(F)c(F)c3)n2)CC1
  A: 72	B: 88	C: .	D: 108

CCn1c2ccccc2c2nnc(SCC(=O)NCc3ccco3)nc21
  A: 90	B: 73	C: -68	D: 101

Cc1ccc(Cl)cc1N1CCN(C(=O)Cn2c(-c3cccs3)cc3cc(F)ccc32)CC1
  A: 110	B: 99	C: .	D: 107

COc1ccc(C(C#N)c2ccc(C(=O)c3ccc(F)cc3)cc2)cc1 (configuration not stated)
  A: .	B: .	C: -23	D: 103

O=C(c1cnc2ccccn12)C(F)(F)SCc1c(Cl)cccc1Cl
  A: 94	B: 89	C: -50	D: 100

CCN(C(=O)CSc1nc2ccccc2c(=O)n1CC1CCCO1)c1cccc(C)c1 (configuration not stated)
  A: 112	B: 85	C: 5	D: 101

Nc1nc(CSC2CCS(=O)(=O)C2)nc(NCCc2ccccc2)n1 (configuration not stated)
  A: 113	B: 76	C: -10	D: 103

CCC(=O)Nc1ccc(-c2nc3cccnc3s2)cc1
  A: 106	B: 101	C: .	D: 97

CCOc1ccc(NC(=O)CN(c2ccc(CC)cc2)S(=O)(=O)c2c(C)noc2C)cc1
  A: 114	B: 86	C: .	D: 105

CCN(CC)c1nc(N)c(C(=O)NC(C)C)s1
  A: .	B: .	C: 1	D: 106

COc1ccccc1C(C)NC(=O)c1ccc2nc[nH]c2c1 (configuration not stated)
  A: 92	B: 100	C: -6	D: .

COc1ccc(-c2oc3ncn4nc(COc5ccc(Cl)cc5)nc4c3c2-c2ccc(OC)cc2)cc1
  A: 108	B: 90	C: -54	D: 109

CSc1ccc(NC(=O)N(Cc2ccccc2)C(=O)CC#N)cc1
  A: 100	B: 96	C: -6	D: 115

COc1cccc(NS(=O)(=O)c2cc3c(cc2C)NC(=O)CO3)c1
  A: .	B: .	C: -10	D: 119

Cn1c(N/C(=C\C(=O)c2cccs2)C(F)(F)F)nc2ccccc21
  A: 47	B: 22	C: -33	D: .

New compounds follow.
Screens by letter: A = Sa growth inh; B = Sa growth inh second temp; C = HCMV UL50-53 inh; D = GIV Gai3 FP
COc1ccc(-c2noc(CCC(=O)Nc3ccc(C(F)(F)F)cc3)n2)cc1
  A: 110	B: 85	C: -15	D: 107

COc1ccc(CCNC(=O)Cn2ccc3cc(S(=O)(=O)N4CCCCC4)ccc32)cc1OC
  A: 94	B: 86	C: .	D: 109

COc1ccc(-c2onc(C)c2C)cc1S(=O)(=O)CCC(=O)Nc1ccc(S(N)(=O)=O)cc1
  A: .	B: .	C: 11	D: 112

CC(=O)NN=C1CCC(C(C)(C)C)CC1 (configuration not stated)
  A: 88	B: 89	C: -21	D: .

CCn1c(N)nc2c1c(=O)[nH]c(=O)n2C
  A: 97	B: 85	C: 3	D: .

Cc1nn(CCCC(=O)NCCc2ccccc2)c(=O)c2cc3sccc3n12
  A: 102	B: 84	C: -1	D: 102

Clc1ccc(OCc2cn3cccnc3n2)cc1
  A: 108	B: 98	C: -50	D: .

COc1ccc(C(=O)CSc2nc3ccccc3c(=O)[nH]2)cc1OC
  A: .	B: .	C: 7	D: 98

CN(Cc1ccccc1)S(=O)(=O)c1ccc(N2CCCCS2(=O)=O)cc1
  A: 98	B: 93	C: 3&-15	D: 109&107

COc1cccc(NC(=O)/C(C#N)=C\c2cn(Cc3ccc(Cl)cc3)c3ccccc23)c1
  A: 104	B: 86	C: -16	D: 111

O=c1[nH]c2ccccc2n1CCCSc1nnc(C2CCCCC2)o1
  A: 79	B: 81	C: -28	D: .

COc1cccc(C(C(=O)NCC2CCCO2)N(CC2CCCO2)C(=O)CC2C(=O)c3ccccc3S2(=O)=O)c1 (configuration not stated)
  A: 97	B: 84	C: -18	D: 103

O=C(NCCn1ccc2ccccc21)c1cccc2ccccc12
  A: 117	B: 99	C: .	D: 95

Exported field by field: entries from further up.
Molecule: COc1cccc(NC(=O)/C(C#N)=C\c2cn(Cc3ccc(Cl)cc3)c3ccccc23)c1
  Sa growth inh: 104 | Sa growth inh second temp: 86 | HCMV UL50-53 inh: -16 | GIV Gai3 FP: 111

Molecule: O=c1[nH]c2ccccc2n1CCCSc1nnc(C2CCCCC2)o1
  Sa growth inh: 79 | Sa growth inh second temp: 81 | HCMV UL50-53 inh: -28 | GIV Gai3 FP: .

Molecule: COc1cccc(C(C(=O)NCC2CCCO2)N(CC2CCCO2)C(=O)CC2C(=O)c3ccccc3S2(=O)=O)c1 (configuration not stated)
  Sa growth inh: 97 | Sa growth inh second temp: 84 | HCMV UL50-53 inh: -18 | GIV Gai3 FP: 103

Rows were taken by chance. About 0.8% of those tested had a hit in this group.
